2A firefly: Primary qHTS Assay for Foot and Mouth Disease Virus Antivirals against NCGC Sytravon and CBC Compound Libraries: Firefly Luciferase Signal; AID 1745856, 2022; Potency, µM (top dose mostly 57.5 µM), for the others: top-dose signal change, negative = less light; hit rate 0.23% among 120,000; HEK cells with a luciferase reporter of 2A StopGo recoding; active = well fitted falling curve with a large enough effect; inconclusive = small, poorly fitted or top-dose-only effect; inactive = no such curve, though single readings can be large or run the other way; note: nearly all actives have a fitted effect of over 60% in size; overnight with compound
2A Renilla: Primary qHTS Assay for Foot and Mouth Disease Virus Antivirals against NCGC Sytravon and CBC Compound Libraries: Renilla Luciferase Signal; Potency, µM (titrated, usually from 57.5 µM), inactives show at the highest dose signal change, negative = less light; HEK cells with a luciferase reporter of 2A StopGo recoding; hit rate 0.32% among 120,000; AID 1745857, 2022; active means well fitted falling curve with a large enough effect; inconclusive means small, poorly fitted or top-dose-only effect; inactive means no such curve, though single readings can be large or run the other way; note: nearly all actives have a fitted effect of over 55% in size; overnight with compound
* hit, by the source's call; u = inconclusive; & = joins results of further samples; [ ] = another dose, or the depositor's remark. % is set by controls: 0 for no effect and ±100 for the full control effect; potency is the fitted concentration of half-maximal effect. This is a subset; the hit share may differ from the screen's.

[1] CC(C)(C)OC(=O)N1CCC(c2c(C(=O)NCCc3ccccc3)cnn2-c2ccc(F)cc2F)CC1
[2] COc1ccc(Nc2ccc3cc(S(=O)(=O)N4CCCC4)ccc3n2)cc1OC
[3] Cc1cc(C)c(Cn2c(=O)n(CCCC(=O)NCc3ccc4c(c3)OCO4)c(=O)c3sccc32)c(C)c1
[4] CCCCNC(=O)CCC(=O)NNc1nc2ccccc2c2nc(-c3ccccc3)nn12
[5] Cc1c(Cl)cccc1-n1ncc(C(=O)N2CCN(C)CC2)c1C1CCN(C(=O)OC(C)(C)C)CC1
[6] N#CCCN1CCN(c2ccc(NS(=O)(=O)c3ccc(F)cc3Cl)c(C(=O)O)c2)CC1
[7] CCCSCCCNC(=O)c1ccc2nc(Cc3ccccc3)oc2c1
[8] COc1ccc(OC)c(C2C(C(=O)Nc3ccc(C)cc3)=C(C)Nc3nnnn32)c1 (stereo not given)
[9] C(=N\NC1=NCCCCC1)/c1cn(-c2ccccc2)nc1-c1cccnc1
[10] CN(C)c1ccc(CNC(=O)Cn2ccc3cc(S(=O)(=O)N4CCCCCC4)ccc32)cc1

assay / compound	1	2	3	4	5	6	7	8	9	10
2A firefly	30%[activator]	-10%	17%	11%	-16%	5%	5%	-30%	25%	58%[activator]
2A Renilla	8%	48%[activator]	-4%	-3%	9%	-12%	-16%	u	26%	99%[activator]

Individual results from the entries so far:
In 2A firefly, no. 8 has the entry -30%
In 2A firefly, no. 3 has the entry 17%
In 2A Renilla, no. 6 has the entry -12%
In 2A Renilla, no. 7 has the entry -16%
In 2A firefly, no. 2 has the entry -10%

Back to the main list, starting 4 compounds before the break.
[7] CCCSCCCNC(=O)c1ccc2nc(Cc3ccccc3)oc2c1
[8] COc1ccc(OC)c(C2C(C(=O)Nc3ccc(C)cc3)=C(C)Nc3nnnn32)c1 (stereo not given)
[9] C(=N\NC1=NCCCCC1)/c1cn(-c2ccccc2)nc1-c1cccnc1
[10] CN(C)c1ccc(CNC(=O)Cn2ccc3cc(S(=O)(=O)N4CCCCCC4)ccc32)cc1
[11] CC12CNC3(C#N)CC1CCC32C (stereo not given)
[12] COc1ccc(NC(=O)[C@H]2C[C@H](CCSC)N[C@]23C(=O)Nc2ccc(F)cc23)cc1
[13] CCOC(=O)c1cc(-c2ccccn2)nc2c1c(=O)[nH]c(=O)n2CC(C)C
[14] Cc1cc(C(=O)N2CCN(c3cccc(C(F)(F)F)c3)CC2)cs1
[15] Cc1ccc(NC(=O)COC(=O)COc2ccc(C3SCCCS3)cc2)c(Cl)c1
[16] COc1ccc(CNC(=O)CCS(=O)(=O)c2cc3c4c(c2)CCN4C(=O)CC3)cc1OC
[17] O=C(Nc1nnc(S(=O)(=O)N2CCCCCC2)s1)c1ccccc1Cl
[18] Cc1ccc(NC(=O)C2CCCc3ccccc32)c(Cl)c1 (stereo not given)
[19] COc1cccc(C(=O)Nc2oc3ccccc3c(=O)c2-c2cccc(OC)c2)c1
[20] COc1ccccc1OCCn1cc(C(=O)C(F)(F)F)c2cc(Br)ccc21

assay / compound	7	8	9	10	11	12	13	14	15	16	17	18	19	20
2A firefly	5%	-30%	25%	58%[activator]	3%	8%	-16%	-3%	32%[activator]	-8%	6%	19%	15%	-3%
2A Renilla	-16%	u	26%	99%[activator]	13%	5%	-13%	-3%	1%	-9%	17%	-1%[1.06 µM]	15%	-9%

[21] Cc1ccc(NC(=O)Nc2nnc(N(C)C3CCCCC3)s2)c(Cl)c1
[22] Cc1ccc(NC(=O)CSc2nnc(Cc3ccccc3)n2-n2cccc2)c(C)c1
[23] CCc1ccc(NC(=O)C(=O)NCC(c2cccnc2)N2CCN(c3ccc(F)cc3)CC2)cc1 (stereo not given)
[24] Cc1oc2cc(OCCN3CCN(c4ccccc4)CC3)ccc2c(=O)c1-c1ccccc1
[25] Cc1cc(F)ccc1NC(=O)CCc1ncc(-c2ccccc2)o1
[26] Cn1c(OCc2cccnc2)nc2c1c(=O)n(Cc1cccc(Cl)c1)c(=O)n2C
[27] Cc1ccc(C(=O)N2CCN(c3cc(Cl)ccc3C)CC2)s1
[28] Cc1cc(C)cc(C(=O)NCCc2csc(-c3ccc(C(F)(F)F)cc3)n2)c1
[29] COc1ccc(CNC(=O)CCc2ncc(-c3ccc(C)c(C)c3)o2)cc1
[30] CC1=CCC(CO)(CO)C(C)C1 (stereo not given)

assay / compound	21	22	23	24	25	26	27	28	29	30
2A firefly	13%	1%	13%	u	10%	u	-15%	-15%	29%	13%
2A Renilla	2%	34%[activator]	-6%	u	9%	u	-7%	2%	7%	12%

[31] CCOC(=O)NCC(=O)NCc1ccccc1
[32] COc1ccc(-c2c(NC(=O)C(C)C)oc3c(C)cccc3c2=O)cc1OC
[33] CCn1c(SCc2ccccc2C)nc(=O)c2c(C(=O)OC)cc(C3CC3)nc21
[34] CC(=O)Nc1ccc(NC(=O)CC2C(=O)NCCN2C(=O)CN2CCN(CCO)CC2)cc1 (stereo not given)
[35] Cc1ccc(CNC(=O)c2ccc3oc(=O)n(Cc4ccccc4)c3c2)cc1
[36] Cc1ccc(CNC(=O)c2cn(C)c3ccc(S(=O)(=O)N4CCOCC4)cc3c2=O)cc1
[37] CC(=O)c1c(C)n(-c2ccccc2)c2ccc(OCC(N)=O)cc12
[38] COc1cccc(N2C(=O)CCC2(C)C(=O)NC2CCCC2)c1 (stereo not given)
[39] O=C(CC12CC3CC(CC(C3)C1)C2)Nc1cccc2ncccc12
[40] Cc1cccc(NC(=O)CN2C(=O)C(c3ccc(F)cc3)=NC23CCCCCC3)c1

assay / compound	31	32	33	34	35	36	37	38	39	40
2A firefly	4%	20%	-32%	-7%	-12%	-6%	21%	-9%	-4%	0%
2A Renilla	5%	4%	29%	-3%	3%	-2%	11%	-11%	1%	22%

[41] COc1cc2oc(=O)c(CC(=O)NCCc3ccccc3)c(C)c2cc1Cl
[42] CCOc1ccc(N(CC)S(=O)(=O)N2CCCC(C(=O)NCCc3ccc(OC)cc3)C2)cc1 (stereo not given)
[43] CCC1CCc2nc3sc(C(=O)Nc4cccc(C(F)(F)F)c4)c(N)c3cc2C1 (stereo not given)
[44] CCc1ccc(-c2csc(/C(C#N)=C/Nc3cccc(C)c3C)n2)cc1
[45] COc1ccc(-c2coc3c(C)c(OCCN4CCCCC4)ccc3c2=O)cc1
[46] O=C(Nc1ncn(Cc2ccc(Cl)cc2)n1)c1ccn(COc2ccc(F)cc2F)n1
[47] Cc1ccccc1OCCCOc1ccccc1/C=N/NC(=O)c1cccc(Cl)c1
[48] CCNC(=O)c1c(NC(=O)COc2ccc(F)cc2)sc2c1CCCC2
[49] Fc1ccccc1-c1nc(NC2CCCC2)c2ccccc2n1
[50] Cc1ccc(C2=NN(C(=O)Cn3nnc(-c4ccc(C(N)=O)cc4)n3)C(c3ccco3)C2)cc1 (stereo not given)

assay / compound	41	42	43	44	45	46	47	48	49	50
2A firefly	-8%&3%	0%	34%	-3%	140%[activator]	-5%	22%	9%	-3%	37%[activator]
2A Renilla	-12%&3%	8%	-4%	0%	-8%	-15%	-3%	3%	-6%	-2%

Reformatted: results already given.
Sequence of screens: 2A firefly, 2A Renilla
46) O=C(Nc1ncn(Cc2ccc(Cl)cc2)n1)c1ccn(COc2ccc(F)cc2F)n1
 : -5%, -15%
47) Cc1ccccc1OCCCOc1ccccc1/C=N/NC(=O)c1cccc(Cl)c1
 : 22%, -3%

Next section
[51] NC(=O)Cn1c(=O)n(CCCCCC(=O)NCc2ccc3c(c2)OCO3)c(=O)c2sccc21
[52] CC1Cn2cc(C(=O)Nc3cccc(C(F)(F)F)c3)c(=O)c3c(Cl)ccc(c32)O1 (stereo not given)
[53] FC(F)(F)c1ccccc1N/N=C/c1ccccc1Br
[54] Cc1ccc(C)c(N=Cc2ccc(N(C)C)cc2)c1
[55] O=S(=O)(Cc1coc(-c2cccc(Cl)c2)n1)CC1CCCO1 (stereo not given)
[56] CCN(CC)Cc1ccccc1CNC(=O)c1cc2ccccc2oc1=O
[57] CN(C(=O)c1ccc(I)cc1)C1CCCCC1
[58] O=C(CSc1nnc(-c2ccccc2F)o1)N1CCc2ccccc21
[59] Cc1nc2c3ccccc3nc(NNC(=O)CCC(=O)O)n2n1
[60] CC(=O)c1ccc(N2CCN(c3ncnc4c3nc3n4CCCC3)CC2)cc1

assay / compound	51	52	53	54	55	56	57	58	59	60
2A firefly	u	-6%	134%[activator]	2%	55%[activator]	15%	188%[activator]	-11%	-9%	u
2A Renilla	u	-4%	5%	-6%	-13%	-3%	34%[activator]	-9%	-6%	u

[61] Cc1nc2cc(NC(=O)CN(C)C(=O)c3ccco3)ccc2o1
[62] CCCCn1c(=O)[nH]c(=O)c2c1nc(CNc1ccc(F)cc1C)n2CCC(C)C
[63] CC1(C)Cc2cc(C(=O)NC3CC3)ccc2C1(C)c1ccc(C(=O)NC2CC2)cc1 (stereo not given)
[64] COc1cc(OC)cc(C(=O)Nc2nnc3n2CCS3)c1
[65] CC(=O)c1ccc(NC(=O)c2cc3c(=O)oc4ccc(C)cc4c3s2)cc1
[66] O=[N+]([O-])c1ccc(S(=O)(=O)Nc2ccccc2-n2cccn2)cc1
[67] CCOc1ccc(C2C(=O)N(C3CCCCCC3)CC(=O)N2Cc2ccc(F)cc2)cc1OC (stereo not given)
[68] COc1ccc(Cn2c(SCc3ccc(C(=O)NCc4cccs4)cc3)nc3ccncc32)cc1
[69] CCn1nc(-c2ccccc2)c(-c2ccccc2)c(C(=O)Nc2ccc(S(N)(=O)=O)cc2)c1=O
[70] Cc1cc(C(=O)Nc2cccc(C(F)(F)F)c2)c2c(C)nn(-c3cccc(F)c3)c2n1

assay / compound	61	62	63	64	65	66	67	68	69	70
2A firefly	113%[activator]	u	6%	80%[activator]	-15%	-6%	-20%	3%	-28%	3%
2A Renilla	22%	u	-10%	60%[activator]	-13%	41%[activator]	-18%	35%[activator]	19%	-17%

[71] CCN(CCCNC(=O)c1cc2c(=O)[nH]c3ccc(C)cc3c2s1)Cc1ccccc1
[72] COc1ccc(NC(=O)c2nc3ccccc3nc2N2CCOCC2)cc1
[73] Cc1sc2nc(CN3CCOCC3)nc(N(C)CC(=O)Nc3cccc4ccccc34)c2c1C
[74] CCn1cnc2c1c(=O)n(CC(=O)N(C)Cc1ccc(C)o1)c(=O)n2Cc1ccccc1
[75] CC(C)NC(=O)NC(=O)C(C)Sc1cccc2cccnc12 (stereo not given)
[76] CCN(CC)S(=O)(=O)c1ccc2c(c1)CC(C(=O)NCc1ccccc1Cl)N2C(C)=O (stereo not given)
[77] CCOc1ccc(S(=O)(=O)N2CCCC2c2cccc(F)c2)cc1 (stereo not given)
[78] Cc1ncc(CNC(=O)N(CCCl)N=O)c(N)n1
[79] CCCc1cc(=O)[nH]c(Nc2nc(C)c3ccc(C)cc3n2)n1
[80] O=C(Cn1nc(Cl)nc1Cl)c1ccc(Cl)cc1

assay / compound	71	72	73	74	75	76	77	78	79	80
2A firefly	-15%	33%[activator]	0%	-7%	-15%	1%	-6%	0%[11.5 µM]	7%	-4%
2A Renilla	-18%	25%	6%	-12%	-15%	7%	15%	-1%	3%	-5%

Looked up one by one from above (5):
[71] CCN(CCCNC(=O)c1cc2c(=O)[nH]c3ccc(C)cc3c2s1)Cc1ccccc1
[79] CCCc1cc(=O)[nH]c(Nc2nc(C)c3ccc(C)cc3n2)n1
[74] CCn1cnc2c1c(=O)n(CC(=O)N(C)Cc1ccc(C)o1)c(=O)n2Cc1ccccc1
[75] CC(C)NC(=O)NC(=O)C(C)Sc1cccc2cccnc12 (stereo not given)
[72] COc1ccc(NC(=O)c2nc3ccccc3nc2N2CCOCC2)cc1

assay / compound	71	79	74	75	72
2A firefly	-15%	7%	-7%	-15%	33%[activator]
2A Renilla	-18%	3%	-12%	-15%	25%

(continued)
[81] CCOC(=O)C1CCCN(CC(=O)N2CCCc3c2c(=O)oc2ccc(OCc4ccccc4)cc32)C1 (stereo not given)
[82] COc1ccc2c(C)c(CC(=O)Nc3cccc(C)c3)c(=O)oc2c1OC
[83] CC(=O)OCC(=O)[C@@]12N=C(C)O[C@@H]1C[C@H]1[C@@H]3CCC4=CC(=O)C=C[C@]4(C)[C@H]3[C@@H](O)C[C@@]12C
[84] Cc1c(-c2ccccc2)oc2c(C(=O)NC(C)c3ccccc3)cccc2c1=O (stereo not given)
[85] Cc1ccc(-c2nc3sc(CCNC(=O)c4ccc(F)c(F)c4)c(C)n3n2)cc1
[86] Cn1cc(C(=O)N2CCN(C(=O)Cc3ccccc3)CC2)c2ccccc21
[87] CC(=O)N1c2ccc(S(=O)(=O)NCCC(=O)Nc3ccc(Br)c(C)c3)cc2CC1C (stereo not given)
[88] Cc1c(C(=O)NCCc2ccccc2)cccc1-n1cnc2cccnc21

assay / compound	81	82	83	84	85	86	87	88
2A firefly	-12%	-5%	15%[11.5 µM]	3%	39%[activator]	-10%	u	17%
2A Renilla	-11%	-13%	16%	11%	-5%	-14%	47%[activator]	4%

From PubChem
